Screens deposited in PubChem BioAssay by several laboratories.
RecA splice inh – inhibitors of M. tuberculosis RecA intein splicing. cell-free RecA intein splicing, fluorescence. inhibition, %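 (about 9 µM by stock and volumes)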. hit rate 0.75% among 290,000; in the data active means inhibition above about 30%; inconclusive means no clear call, values can overlap the other calls;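 further: 0% = vehicle wells and 100% = reference inhibitor control wells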
Target sequence (P9WHJ3 whole entry, looked up, canonical isoform): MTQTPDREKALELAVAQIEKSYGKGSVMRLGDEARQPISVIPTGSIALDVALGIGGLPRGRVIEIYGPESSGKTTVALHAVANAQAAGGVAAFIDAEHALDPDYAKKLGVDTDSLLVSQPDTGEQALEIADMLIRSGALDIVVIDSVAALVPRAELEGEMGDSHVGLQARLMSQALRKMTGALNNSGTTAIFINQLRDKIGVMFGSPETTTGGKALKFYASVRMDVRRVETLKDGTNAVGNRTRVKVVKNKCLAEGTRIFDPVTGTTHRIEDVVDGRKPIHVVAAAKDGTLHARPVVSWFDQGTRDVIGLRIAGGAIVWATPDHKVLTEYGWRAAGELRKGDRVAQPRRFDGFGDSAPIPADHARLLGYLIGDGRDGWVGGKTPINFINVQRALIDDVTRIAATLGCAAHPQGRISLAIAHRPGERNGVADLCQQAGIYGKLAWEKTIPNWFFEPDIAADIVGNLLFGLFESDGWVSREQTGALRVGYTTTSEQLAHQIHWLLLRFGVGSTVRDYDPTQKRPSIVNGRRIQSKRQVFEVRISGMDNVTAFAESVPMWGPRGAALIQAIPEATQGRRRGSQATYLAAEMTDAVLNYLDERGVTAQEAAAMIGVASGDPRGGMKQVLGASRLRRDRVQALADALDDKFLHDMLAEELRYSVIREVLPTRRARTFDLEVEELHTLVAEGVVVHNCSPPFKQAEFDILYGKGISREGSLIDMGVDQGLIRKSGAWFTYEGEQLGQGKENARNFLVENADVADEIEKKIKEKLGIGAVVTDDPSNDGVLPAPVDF
Arbovirus inh – arbovirus infection inhibition. inhibition, % at 10 µM. hit rate 0.37% among 200,000. arbovirus infection cell-based antiviral screen. AID 1251;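 active means inhibition from about 30%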;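 further: bluetongue infection of BSR cells; cell survival read as ATP light after 72 h; 0% = infected wells without compound and 100% = uninfected wells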
Mtb betalactam – beta-lactam sensitization of Mtb H37Rv. inhibition, % at 25 µM. M. tuberculosis H37Rv growth with meropenem, percent inhibition; hits of this screen are not shown here. AID 434955. hit rate 0.27% among 330,000;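 active means about 74% or more and at least 40 points above the plate without the antibiotic, then above 30% in a dose series; inconclusive means first-round hits that could not be retested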;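 further: growth measured after seven days incubation then overnight dye step; 0% = bacteria only wells and 100% = bacteria with antibiotic; twin plates without the antibiotic show which effects depend on it; some results filed as inactive read as strong as hits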
Mtb H37Rv – M. tuberculosis H37Rv growth inhibitors, H37Rv strain (AID 1626). M. tuberculosis H37Rv growth inhibition; higher % means a stronger effect. hit rate 0.95% among 220,000. one-dose inhibition, % at 10 µM; IC50 in µM for titrated hits;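 active means confirmed in a dose series; inconclusive means inhibition above 80% but not taken into the dose series; inactive means below 80% or under 30% at every dose of the series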;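 further: bacteria incubated seven days before Alamar blue readout; 0% = bacteria only wells and 100% = bacteria with antibiotic wells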
YopH PTP inh – inhibitors of Yersinia enterocolitica YopH tyrosine phosphatase; hit rate 0.16% among 140,000; fluorescence Ex485/Em525; inhibition, %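 (about 10 µM by stock and volumes)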;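 active means inhibition of 50% or more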;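 further: controls were vehicle for no effect and minimum signal wells for full effect; inactives centre near -20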
Arbovirus inh repeat – second read-out of Arbovirus inh, no call of its own (marks repeat the call); inhibition, %; measured here: 10K subset replicate screen; many hits read low in the repeat;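 first of two repeat runs on a subset; 0% = infected and 100% = uninfected wells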
Starred values were filed as active, the others as inactive; ? = inconclusive; . = not tested or not shown. These rows are one share of the data, so the mix of outcomes need not match the whole.

Sample of the layout:
SMILES	RecA splice inh	Arbovirus inh	Mtb betalactam	Mtb H37Rv	YopH PTP inh	others
O=C(c1cccc(S(=O)(=O)NCc2ccccc2)c1)N1CCCCC1	-4.3	.	3	.	.
COc1ccc(-n2nc3c(N4CCC(C(=O)NCCc5ccccc5C)CC4)nnc(C)c3c2C)cc1	0.1	.	-1	.	.

Results, repeating the preview:
SMILES	RecA splice inh	Arbovirus inh	Mtb betalactam	Mtb H37Rv	YopH PTP inh	others
O=C(c1cccc(S(=O)(=O)NCc2ccccc2)c1)N1CCCCC1	-4.3	.	3	.	.
COc1ccc(-n2nc3c(N4CCC(C(=O)NCCc5ccccc5C)CC4)nnc(C)c3c2C)cc1	0.1	.	-1	.	.
COCCCNC(=O)CCC(=O)NNc1nc2ccccc2c2nc(C)nn12	-2.9	4	4	4%	.
Cc1ccc(C(=O)N2CCCC2)cc1S(=O)(=O)Nc1ccccc1	-2.3	12	-7	3%	12
CCOC(=O)N1CCC(c2[nH][nH]c(=O)c2C)CC1	1.3	3	3	-8%	-7
Brc1c(-c2ccc3c(c2)OCO3)nc2ncccn12	-2.3	-14	87	2.2µM*	.
CC(C)(C)OC(=O)[C@H](Cc1ccccc1)NC(=O)c1nc[nH]c1C(=O)N1CCN(c2ccccc2)CC1	3.9	.	23	.	.
C=CCn1c(=O)[nH]c2cc(C(=O)N3CCN(c4cc(C)ccc4C)CC3)ccc2c1=O	-1.7	-3	?	.	-11
COc1ccc(-c2[nH]ncc2-c2cnn(-c3ccccc3)c2)c(O)c1	-7.1	30	-15	-5%	-27
c1ccc2c(c1)CCNC2c1ccncc1 (stereo unspecified)	0.3	.	-9	-9%	.
N/C(=N\OC(=O)COc1ccc(Cl)cc1)c1ccc(Cl)cc1	0.3	6	-1	11%	-14
CC1=C(C(=O)O)N2C(=O)C(NC(=O)c3nn(C)cc3[N+](=O)[O-])C2SC1 (stereo unspecified)	-4.0	12	3	2%	.
Cc1nnc(SCC(=O)NCC2CCCO2)n1-c1ccccc1 (stereo unspecified)	-0.7	2	4	-15%	-29
O=C(CNc1ccccc1)N/N=C/c1ccc2c(c1)OCO2	0.2	-17	0	-1%	-7
NNC(=O)c1cccc(S(=O)(=O)Nc2cccc(C(F)(F)F)c2)c1	-14	.	-5	-4%	.
COc1ccc(C(=O)N2CCNC(=O)C2CC(=O)Nc2ccc(C)c(C)c2)cc1 (stereo unspecified)	-2.5	.	4	.	.
O=C(NCCCN1CCc2ccccc2C1)C1CCN(S(=O)(=O)N2CCC3(CC2)OCCO3)CC1	-1.4	25	-2	14%	.
O=C(CCCn1c(=S)[nH]c2cc3c(cc2c1=O)OCO3)NCc1ccccc1Cl	-0.9	.	5	.	.
Fc1ccc(OCCCn2ccnc2)cc1	-1.8	.	-3	.	.
Cc1ccc(OCC(=O)N2CC(C)OC(C)C2)c([N+](=O)[O-])n1 (stereo unspecified)	-0.3	5	-2	-4%	.
COc1ccc(CCN2CCCC(CN(C)Cc3cccc(OC)c3)C2)cc1 (stereo unspecified)	1.9	.	1	.	.
CC1=C(C(=O)Nc2ccccc2C)C2(CCCC2)C(C(N)=O)C(=O)N1 (stereo unspecified)	-2.1	-2	0	-4%	-13
COc1ccc(/C=N/NC(=O)CCC(=O)Nc2ccc(F)cc2)c(OC)c1	0.7	.	0	.	.
CCCCN(C(=O)c1ccc(C)o1)c1c(N)n(CCCC)c(=O)[nH]c1=O	2.1	.	-2	.	.
CC(C)N(C)C1CCN(C(=O)Nc2ccc(Cl)cc2)CC1	0.3	8	-2	-5%	-4
CCc1nc2ccccc2c(C(=O)Nc2ccc(F)cc2)c1C	-1.1	.	-2	.	.
COC(=O)CCCC1=CC2=CC(=O)C(C)(OC(=O)c3cccs3)C(=O)C2=CN1Cc1ccc2c(c1)OCO2 (stereo unspecified)	-1.2	.	-2	11%	.
COc1ccccc1OCC(=O)N(Cc1nc(-c2ccccc2)no1)C1CCCCC1	.	-26	-1	13%	23
Cc1cc(C)n(C(=O)CNC(=O)c2ccc3c(c2)OCCO3)n1	-3.0	6	-10	-3%	-41
CC(=O)Nc1cccc2c1Cc1ccccc1-2	-0.5	.	-7	.	.
O=[N+]([O-])c1ccccc1S(=O)(=O)Nc1cccc(-c2ccc(N3CCOCC3)nn2)c1	-0.2	.	-11	.	.
COc1ccc(C(=O)NCCc2cccc(Cl)c2)cc1OC1CCN(C(C)=O)CC1	0.2	.	9	.	.
Cc1sc2ccccc2[n+]1CCC(C)S(=O)(=O)[O-] (stereo unspecified)	-2.9	6	-6	-2%	-25
O=C(Cn1c(=O)oc2ccccc21)Nc1ccc(S(=O)(=O)N2CCCCC2)cc1	0.2	-5	-7	10%	-45
COc1ccc(OCc2cccc(C(=O)O)c2)cc1	-1.1	-3	-8	-11%	.
Cc1ccnc(NC(=O)c2c(-c3ccccc3Cl)noc2C)c1	-1.3	3	1	6%	-27
Cn1cc([N+](=O)[O-])c(C(=O)Nc2ccn(C34CC5CC(CC(C5)C3)C4)n2)n1	-5.2	12	-2	2%	-28
CC(C(=O)O)n1c(-c2ccn[nH]2)n[nH]c1=S (stereo unspecified)	-1.9	.	-4	-2%	.
Cc1c(N2C(=O)C(=O)/C(=C(/O)c3ccccc3)C2c2ccc(F)cc2)c(=O)n(-c2ccccc2)n1C (stereo unspecified)	0.1	4	-5	36%	-12
Cc1cc[n+](CC(=O)Nc2nc3ccccc3s2)cc1	1.5	3	-3	4%	.
CCNS(=O)(=O)c1c(C)cc(C)c(N(C)S(=O)(=O)c2ccccc2)c1C	-1.3	4	-4	-5%	.
CCn1c(=S)sc2c(=O)n(CC(=O)Nc3ccc(Cl)cc3)c(C)nc21	1.3	.	17	.	.
CC(C)Cc1cc(C(=O)N2CCC(N3CCC(C(=O)N4CCCC4)CC3)CC2)n[nH]1	-1.5	1	-15	-8%	.
Cc1ccc(C)c2[nH]c(=O)c(C(c3nnnn3C(C)(C)C)N3CC=C(c4ccc(F)cc4)CC3)cc12 (stereo unspecified)	.	-2	.	14%	-29
CC1(C)C(=O)Nc2ccccc2N1C(=O)CSc1nnc2c(Cl)cc(Cl)cn12	1.5	8	3	-4%	-16
COc1ccccc1NC(=O)CSc1nc(=O)n(CCN2CCOCC2)c2c1CCC2	1.0	.	-14	.	.
O=C(CSc1nc2ccccc2c(=O)n1-c1ccc(F)cc1)Nc1ccc(C(=O)O)cc1	1.2	.	-3	.	.
CCOC(=O)C1(CCc2ccccc2)CCN(C(=O)C2=C(C)OCCO2)CC1	0.4	-4	-6	-5%	.
Cc1occc1C(=O)N1CCN(c2ccc(Cl)c(Cl)c2)CC1	7.4	-4	-2	-5%	-31
O=C(CSc1nnc(-c2ccccc2Cl)n1Cc1ccco1)Nc1ccc2c(c1)OCCO2	3.5	5	6	6%	-24
O=[N+]([O-])c1cccc(OCc2cn3cccnc3n2)c1	-4.5	2	-9	5%	.
O=C(C(Cc1ccccc1)N1C(=O)C2C3C=CC(C3)C2C1=O)N1CCCCCC1 (stereo unspecified)	3.4	4	-9	-3%	-16
O=C(COc1ccc2c(C(F)(F)F)cc(=O)oc2c1)Nc1ccc2c(c1)OCCO2	-30	-13	-2	-10%	-7
O=C(O)CSCC(=O)N1CCN(Cc2ccc3c(c2)OCO3)CC1	-2.2	.	-10	.	.
CN1CCN(c2ncnc3c2cnn3-c2ccc(Cl)cc2)CC1	-2.0	-45	-1	8%	-13
Cc1sccc1/C=N/NC(=O)c1ccco1	-1.6	.	-13	.	.
CC1(C)Oc2ccc3ccc(=O)oc3c2/C(=C/NNC(N)=S)C1=O	-1.7	.	-9	.	.
CC(=O)Nc1ccc(NC(=O)C2CC(=O)Nc3nc4ccccc4n32)cc1 (stereo unspecified)	1.1	.	6	5%	.
COc1ccc(Nc2ccc(N3C(=O)CCC3=O)cc2[N+](=O)[O-])cn1	-2.5	-8	-1	2%	.
Cn1cccc1-c1cc(C(=O)N/N=C/c2ccc(F)cc2)[nH]n1	1.1	.	-4	.	.
Continuation:
SMILES	RecA splice inh	Arbovirus inh	Mtb betalactam	Mtb H37Rv	YopH PTP inh	others
COC(=O)c1c(C)oc(C)c1S(=O)(=O)N1CCOCC1	-0.3	.	-8	7%	.
CCn1cc(CNC(=O)/C=C/c2cnn(C)c2)c(C)n1	1.1	1	0	-4%	-23
CSc1nnc(C)c(/C=C/NOCc2ccc(Cl)cc2)n1	.	1	0	5%	.
CSc1ccccc1NC(=O)CN(C)CC(=O)Nc1ccccc1F	4.7	-3	7	-6%	-24
Cc1ccc(NC(=S)N2CCCCCC2)cc1	.	.	-2	8%	.
O=C(COc1ccc(-n2cnnn2)cc1)NC1CCCCC1	-1.6	8	9	3%	-38
CCc1cc2c(Nc3ccc(O)cc3)nc(C)nc2s1	-0.8	.	6	.	.
CCOc1cc(/C=C2\SC(=NC)N(C)C2=O)cc(Cl)c1OC(C)=O	-1.6	.	0	.	.
CSCC[C@H](NC(=O)OC(C)(C)C)C(=O)N/N=C/c1ccc2nccnc2c1	-0.8	.	-2	-10%	.
N#Cc1ccc(Oc2cccnc2)cc1C#N	-1.9	4	?	-5%	-6	Arbovirus inh repeat=2
O=C(CCc1nc2ccccc2c(=O)[nH]1)N1CCN(S(=O)(=O)c2ccc(Cl)c(C(F)(F)F)c2)CC1	-2.1	.	0	.	.
COc1cc(C(NC=O)C(=O)Nc2c(C)cccc2C)ccc1O (stereo unspecified)	-1.5	.	-2	-4%	.

Twelve successive entries from above:
SMILES	RecA splice inh	Arbovirus inh	Mtb betalactam	Mtb H37Rv	YopH PTP inh	others
COc1ccc(Nc2ccc(N3C(=O)CCC3=O)cc2[N+](=O)[O-])cn1	-2.5	-8	-1	2%	.
Cn1cccc1-c1cc(C(=O)N/N=C/c2ccc(F)cc2)[nH]n1	1.1	.	-4	.	.
COC(=O)c1c(C)oc(C)c1S(=O)(=O)N1CCOCC1	-0.3	.	-8	7%	.
CCn1cc(CNC(=O)/C=C/c2cnn(C)c2)c(C)n1	1.1	1	0	-4%	-23
CSc1nnc(C)c(/C=C/NOCc2ccc(Cl)cc2)n1	.	1	0	5%	.
CSc1ccccc1NC(=O)CN(C)CC(=O)Nc1ccccc1F	4.7	-3	7	-6%	-24
Cc1ccc(NC(=S)N2CCCCCC2)cc1	.	.	-2	8%	.
O=C(COc1ccc(-n2cnnn2)cc1)NC1CCCCC1	-1.6	8	9	3%	-38
CCc1cc2c(Nc3ccc(O)cc3)nc(C)nc2s1	-0.8	.	6	.	.
CCOc1cc(/C=C2\SC(=NC)N(C)C2=O)cc(Cl)c1OC(C)=O	-1.6	.	0	.	.
CSCC[C@H](NC(=O)OC(C)(C)C)C(=O)N/N=C/c1ccc2nccnc2c1	-0.8	.	-2	-10%	.
N#Cc1ccc(Oc2cccnc2)cc1C#N	-1.9	4	?	-5%	-6	Arbovirus inh repeat=2

(more compounds)
SMILES	RecA splice inh	Arbovirus inh	Mtb betalactam	Mtb H37Rv	YopH PTP inh	others
COC(=O)c1ccc(C(=O)OC)c(NC(=O)COC(=O)C2CC2C)c1 (stereo unspecified)	-0.8	0	100	.	-23
COC(C(=O)Nc1ccc(F)cc1F)c1ccccc1 (stereo unspecified)	2.1	8	-2	-9%	-17
O=C(NCc1ccc(Cl)cc1)c1cc(=O)[nH]c2ccccc12	-1.7	.	4	.	.
O=C(c1cccc(C(F)(F)F)c1)N1CCC(O)(CS(=O)(=O)Cc2ccccc2Cl)CC1	0.3	4	-3	-2%	20
COc1ccc(N(CC(=O)NCc2ccc3c(c2)OCO3)S(C)(=O)=O)cc1OC	-7.5	0	15	-7%	-13
O=C(CSc1nnnn1C1CCCC1)Nc1ccccc1N1CCOCC1	13	9	-4	-6%	.
CCC1CCCCN1CC(C)(C)NS(=O)(=O)c1ccccc1 (stereo unspecified)	1.4	.	-2	-4%	.
CC(=O)c1ccccc1NC(=O)COC(=O)/C=C/c1ccc(C)o1	-0.1	1	?	0%	.
COc1ccc(C2CC(C(F)(F)F)n3nc(C(=O)Nc4ccc5c(c4)OCO5)cc3N2)cc1 (stereo unspecified)	-2.6	-29	-2	17%	-41
CC(=O)Nc1ccc(S(=O)(=O)N[C@@H](C)C(=O)N2CCN(c3ccccn3)CC2)cc1	-5.7	.	-1	.	.
CC1(C)CC2CC(C)(CN2C(=O)c2cc(-c3ccccc3)on2)C1 (stereo unspecified)	-1.0	.	-3	.	.
Cc1ccccc1OCCCC(=O)Nc1nncs1	0.8	-23	-1	6%	.
O=C(Nc1ccccc1)OC1CC2CC1C1CCCC21 (stereo unspecified)	8.4	0	-4	3%	.
O=C(Cc1ccccc1)Nc1ccccc1C(=O)Nc1ccccc1	0.4	-6	12	13%	-19
C=CCNc1cc(=O)n(Cc2ccccc2)c(=O)[nH]1	6.3	.	-10	.	.
O=C(N/N=C/c1ccc2c(c1)OCO2)C(=O)N1CCCC1	-2.2	9	-2	2%	.
